# StopGo RLuc: lowers the Renilla signal of an FMDV 2A StopGo reporter. HEK cells with a luciferase reporter of 2A StopGo recoding. Potency, µM (top dose mostly 57.5 µM), without a hit: at the top dose signal change, negative = less light. 120,000 tested, 0.32% active; active means well fitted falling curve with a large enough effect; inconclusive means small, poorly fitted or top-dose-only effect; inactive means no such curve, though single readings can be large or run the other way; note: nearly all actives have a fitted effect of over 55% in size; overnight with compound
# 2A firefly: FMDV 2A StopGo reporter, firefly signal. HEK cells with a luciferase reporter of 2A StopGo recoding. Potency, µM (highest dose often 57.5 µM), inactives show at the highest dose signal change, negative = less light. 120,000 tested, 0.23% active. AID 1745856; active = well fitted falling curve with a large enough effect; inconclusive = small, poorly fitted or top-dose-only effect; inactive = no such curve, though single readings can be large or run the other way; note: nearly all actives have a fitted effect of over 60% in size; overnight with compound
# * hit, by the source's call; ? = inconclusive; [ ] = another dose, or the depositor's remark. % is set by controls: 0 for no effect and ±100 for the full control effect; potency is the fitted concentration of half-maximal effect.
SMILES,StopGo RLuc,2A firefly
CCOc1cccc(NC(=O)CSc2ncc(-c3ccccc3)[nH]2)c1,1%,37%[activator]
CCc1ccc(C(=O)c2cn(Cc3ccccc3)c3cc(OC)c(OC)cc3c2=O)cc1,-9%,-28%
CC(=O)c1cccc(NS(=O)(=O)c2ccc(-c3coc(C)n3)cc2)c1,-7%,?
Cc1ccc(C)c(N2CCN(S(=O)(=O)c3cc(C(=O)Nc4cc(Cl)cc(Cl)c4)ccc3F)CC2)c1,-10%,-15%
CCOC(=O)C1=C(COC(=O)CC(O)(c2ccccc2)C(F)(F)F)NC(=O)NC1c1cccs1 (stereo not drawn),-7%,0%
CN(C)C(=O)C(NCCc1c[nH]c2ccccc12)c1ccccc1 (stereo not drawn),-3%,2%
COc1cccc(-c2ccc3c(N)c(C(=O)c4ccc(Br)cc4)sc3n2)c1,75%[activator],-2%
Cc1ccc(-c2noc(-c3ccc(Br)o3)n2)s1,-3%,170%[activator]
Cc1ccc(N(CC(O)CN2CCOCC2)S(=O)(=O)c2ccc(C)cc2)cc1 (stereo not drawn),9%,-8%
O=C(CC1CC2CCC1C2)OCC(=O)c1ccc2c(c1)OCO2 (stereo not drawn),12%,31%[activator]
Cc1oc(-c2nc(C#N)c(NCCN(C)C)o2)cc1S(=O)(=O)N(C)Cc1ccccc1,-1%,-20%
CCCCCN(Cc1ccc(F)cc1)C(=O)C(C)NC(N)=O (stereo not drawn),0%,7%
COc1ccccc1C(=O)Nc1nnc(S(=O)(=O)N(C)c2ccc(Cl)cc2)s1,-7%,2%
CCCCCCc1cc2c3c(c(=O)oc2cc1OCC(=O)C(C)(C)C)CCCC3,12%,14%
CCc1ccc(-c2nn(-c3ccccc3)cc2/C=N/O)cc1,23%,50%[activator]
Cc1cc(NC(=O)CSc2ncc(C(=O)Nc3ccc(C)c(C)c3)c(=O)n2C)no1,1%,-11%
CN(CC(=O)Nc1ccccc1C(=O)NC1CC1)Cc1ccc(F)cc1,-12%,-13%
Cc1ccc(C)c(OCC(O)Cn2cnc3ncccc3c2=O)c1 (stereo not drawn),11%,40%
Cc1ccc(Cl)cc1NC(=O)COCc1cc(-c2ccco2)on1,-19%,3%
COc1ccc(NC(=O)C(=O)c2c[nH]c3ccc(Br)cc23)cc1,-4%,43%[activator]
O=C(NC1CCCCC1)C1(c2ccccc2)CCOCC1,-11%,2%
Cc1[nH]c(=O)[nH]c(=O)c1S(=O)(=O)Nc1ccc(Cl)c(Cl)c1,5%,-15%
CC1(C)c2ccccc2N2CC(=O)N[C@@]21/C=C/c1ccc(Cl)cc1,-5%,1%
Cc1ccccc1OCCN,-1%,-7%
COc1ccc(-c2c(C#N)c(N)nc3c2CN(C)CC3)c(OC)c1,-11%,-4%
CC(=O)Nc1ccc(NC(=O)c2cc(CN3CCCC3)on2)cc1,-8%,-3%
Cn1c(=O)c2c(ncn2CCC(=O)Nc2cccc(Cl)c2)n(C)c1=O,-5%,-15%
COc1ccccc1CC(=O)Nc1nc(C)c(C(C)=O)s1,9%,27%
COc1ccccc1-c1c(C(F)(F)F)oc2cc(OC(=O)C3CC3)ccc2c1=O,4%,15%
CC1=C(c2ccc(C)c(C)c2)S(=O)(=O)N=C1N1CCC(C(=O)Nc2ccc(Cl)cc2)CC1,-7%,-16%
COc1ccc2c(C)c(CC(=O)N3CCOCC3)c(=O)oc2c1,16%,37%[activator]
O=C(NCC1CN(Cc2ccccc2)CCO1)C1CCC1 (stereo not drawn),10%,25%
CC(COc1cccc(OC(F)(F)F)c1)CN1CCC(C(O)(c2ccccc2)c2ccccc2)CC1 (stereo not drawn),-10%,-15%
COc1ccc(-c2c(C)c3cc(OC(=O)C(C)C)ccc3oc2=O)cc1,50%[activator],107%[activator]
NC(=O)C1CCN(C(=O)c2cc(-c3ccncc3)nc3ccccc23)CC1,9%,8%
CCOC(=O)c1[nH]c2ccc(F)cc2c1NC(=O)CCC1CCCC1,14%,9%
CC(C)C(=N)N,2%,4%
O=C(O)c1cnc(-c2ccccc2)nc1,8%,11%
Nc1cc(C(=O)OCc2cccc(F)c2F)ccc1Cl,-5%[1.06 µM],59%[activator]
Nc1ccc(S(=O)(=O)O)c2cccc(S(=O)(=O)O)c12,10%,9%
COc1ccc(CC(=O)N(Cc2nc(-c3ccc(C)cc3)no2)C(C)C)cc1,23%,11%
c1ccc(CCNC2CCCCCCC2)cc1,?,18%
COc1cc2c(cc1/C=C(/C#N)c1ccccn1)OC(C)C2 (stereo not drawn),-17%,14%
O=C(O)C(F)(F)C12OC3C4C5CC(C6C5C3C61)C42 (stereo not drawn),14%,1%
CCOc1ccc(CCNC(=O)Cn2c(=O)c3cccn3c3ccc(F)cc32)cc1OCC,-18%,26%
Cc1ccc(CCNC(=O)NCc2noc3ccc(C)cc23)cc1,10%,-1%
CSc1ccc(NC(C)=O)cc1,7%,0%
COc1ccccc1CNS(=O)(=O)c1ccc(-c2cc(C(F)(F)F)on2)s1,-24%,-28%

# Part of the list above in order of number of heavy atoms, low to high.
SMILES,StopGo RLuc,2A firefly
c1ccc(CCNC2CCCCCCC2)cc1,?,18%
Nc1cc(C(=O)OCc2cccc(F)c2F)ccc1Cl,-5%[1.06 µM],59%[activator]
COc1cc2c(cc1/C=C(/C#N)c1ccccn1)OC(C)C2 (stereo not drawn),-17%,14%
Cc1ccc(CCNC(=O)NCc2noc3ccc(C)cc23)cc1,10%,-1%

# The results go on:
SMILES,StopGo RLuc,2A firefly
CC(=O)Nc1ccc(-c2csc(Nc3ccc(O)c(C(=O)O)c3)n2)cc1,9%,14%
CC(=O)c1cccc(NC(=O)COC(=O)c2ccc(C3Nc4ccccc4S(=O)(=O)N3)cc2)c1 (stereo not drawn),-7%,1%
Cc1cc(C(=O)NC(c2ccc3c(c2)OCCCO3)C(C)C)c(C)s1 (stereo not drawn),20%,15%
CCC(C(=O)NCCc1ccc(SC)cc1)n1nc(C)c2c(C)n(-c3ccc(C)cc3)nc2c1=O (stereo not drawn),?,?
CCOc1ccc(NC(=O)c2nn(Cc3ccccc3)c(=O)c3ccccc23)cc1,-3%,6%
Cc1cccc(NC(=O)c2cc(=O)c3ccccc3o2)c1,6%,108%[activator]
Cc1noc(C)c1S(=O)(=O)N1CCC(C(=O)N2CCN(c3cccc(C(F)(F)F)c3)CC2)CC1,-6%,-13%
CCCn1c2ccccc2c2cnn(CC(=O)NC(CCSC)C(=O)OC)c(=O)c21 (stereo not drawn),5%,15%
Cc1cc(Nc2cc(Cl)cc(Cl)c2)nc(-c2ccccc2O)n1,-10%,-9%
COC(=O)c1cc(-c2ccc(OC)c(OC)c2)nc2ccc(C)cc12,7%,35%[activator]
COc1cc(-c2nc(Cc3c(F)cccc3Cl)no2)cc(OC)c1OC,10%,2%
Cc1nn(C(=O)COc2ccccc2Br)c(C)c1Sc1ccccc1,4%,8%

# Entries of single compounds, quoted from the list. Order of values: StopGo RLuc, 2A firefly
# Record of COc1ccc(CC(=O)N(Cc2nc(-c3ccc(C)cc3)no2)C(C)C)cc1 = 23%, 11%
# Record of CC(=O)c1cccc(NC(=O)COC(=O)c2ccc(C3Nc4ccccc4S(=O)(=O)N3)cc2)c1 (stereo not drawn) = -7%, 1%
# Record of COc1ccccc1-c1c(C(F)(F)F)oc2cc(OC(=O)C3CC3)ccc2c1=O = 4%, 15%
# Record of CC1(C)c2ccccc2N2CC(=O)N[C@@]21/C=C/c1ccc(Cl)cc1 = -5%, 1%
# Record of CCc1ccc(-c2nn(-c3ccccc3)cc2/C=N/O)cc1 = 23%, 50%[activator]

# The list goes on.
SMILES,StopGo RLuc,2A firefly
CS(=O)(=O)c1ccc(C(=O)Nc2ccc(-c3cn4ccsc4n3)cc2)cc1,-3%,0%
CC1(C)CC(NC2CC(C)(C)NC(C)(C)C2)CC(C)(C)N1,10%,-2%
CC(=O)N1CCN(c2oc(/C=C/c3ccccc3)nc2C#N)CC1,8%,17%
CCc1ccc(C(=O)c2cn(CC(=O)Nc3ccc4c(c3)OCCO4)c3ccc(C)cc3c2=O)cc1,-7%,-5%
CCOc1ccccc1NCc1nnc2n1CCCCC2,4%,-5%
CC(NC(=O)c1cc(Cl)sc1Cl)C12CC3CC(CC(C3)C1)C2 (stereo not drawn),-11%,-6%
CCN(Cc1ccccc1)C(=O)c1cc2c(=O)oc3ccc(C)cc3c2s1,14%,13%
CCCCN(CCCC)CCNC(=O)C1=C(C)C(=O)OC12CCN(C(C)=O)CC2,-4%,7%
CN(CC(=O)Nc1cccc(C(F)(F)F)c1)S(=O)(=O)c1ccc2[nH]c3c(c2c1)CCCC3,?,?
O=C(Nc1ccc(S(=O)(=O)N2CCCCC2)cc1)C1=NN(c2ccccc2)C(=O)CC1,9%,-3%
O=C(CN1C(=O)COc2ccc(S(=O)(=O)N3CCCCCC3)cc21)N1CCN(c2ccc(F)cc2)CC1,-2%,-4%
CN1CCC(CNC(=O)C2CCN(C(=O)c3ccc(C(F)(F)F)cc3)CC2)CC1,-2%,-15%
COc1cc(NC(=O)CN2C(=O)CN(C)C(=O)c3ccccc32)cc(OC)c1OC,-8%,0%
Nc1nccnc1C(=O)NCc1ncc(-c2ccccc2)o1,-29%,0%
CC(C)C1CC(CCN2CCCCC2)(c2ccccc2)CCO1 (stereo not drawn),-1%,0%
O=C(O)c1cccc(OCc2nnnn2-c2ccccc2)c1,-5%,-9%
COc1ccc(NC(=O)CC(C)n2nc(C)cc2C)cc1Cl (stereo not drawn),-6%,-16%
COc1cccc2c1ccn2CC(=O)NCC1(CC(=O)O)CCCCC1,-10%,9%
COc1ccc(CNC(=O)c2ccc3c(c2)N(Cc2ccccc2C)C(=O)c2ccccc2S3=O)cc1 (stereo not drawn),-3%,-14%
O=C(c1sccc1-c1ccccc1)N1CCN(S(=O)(=O)c2cc(F)ccc2F)CC1,-2%,-19%
CC1Cn2cc(C(=O)Nc3ccccc3C(F)(F)F)c(=O)c3c(Cl)ccc(c32)O1 (stereo not drawn),-4%,-13%
CCCNC(=O)C(C)NC(=O)c1nn(C)c(=O)c2ccccc12 (stereo not drawn),2%,3%
COc1cccc(NC(=O)CSc2cc(C)[nH]c(=O)n2)c1,-7%,1%
CC(C)Sc1oc(-c2cccs2)nc1S(=O)(=O)c1ccc(Cl)cc1,98%[activator],-15%
COc1ccc2oc(-c3ccc(C)c(NC(=O)C(C)C)c3)nc2c1,5%,178%[activator]
O=C(COC(=O)c1ccc2ccccc2n1)NCCc1ccccc1,-17%,-7%
CSc1cccc(NC(=O)c2csc3c2CCCC3)c1,8%,174%[activator]
COc1ccc(C(=O)c2sc(Nc3cccc(Cl)c3)nc2N)cc1,33%[activator],0%
Cc1cccn2c(=O)c(C(=O)NCCc3ccccc3)cnc12,15%,5%
CCc1ccc(NC(=O)CC2C(=O)N(c3ccc(F)cc3)C(=O)N2Cc2ccc(F)cc2)cc1 (stereo not drawn),13%,-15%
C/C(=N/NC(=O)c1ccccc1)c1ccc(Cl)s1,5%,147%[activator]
CCCN1CCCC[C@H]1C(=O)Nc1c(C)cccc1C,-5%,-1%[11.5 µM]
O=C(COc1ccc(Cl)cc1)OCc1cc(=O)n2nc(-c3cccs3)sc2n1,-9%,11%
Cc1cc(Cl)ccc1OCc1n[nH]c(=S)n1C,-3%,5%
COc1cccc(CC(=O)N2CCN(CC(=O)NC(C)(C)C)CC2)c1,-7%,0%
Cn1cc(S(=O)(=O)N2CCC(C(=O)Nc3cccc(Br)c3)CC2)cc1C(N)=O,-8%,0%
CC(=O)c1ccc(OCCCCN2CCCC2)cc1,-4%,9%
COC(=O)C(C)Sc1nc(C)nc2c1c(=O)n(C)c(=O)n2CC(C)C (stereo not drawn),?,?
CCOc1cc(C=O)ccc1OCc1cccc2ccccc12,32%[activator],0%
Cc1ccc2cccc(NC(=O)COc3ccc(C)c(C)c3)c2n1,-6%,-6%
O=C(O)CCCC(=O)N1CCN(c2ccccc2Cl)CC1,-9%,-7%
Cc1ccc(NC(=O)C(CC(C)C)NC(N)=O)cc1 (stereo not drawn),-7%,11%
CCc1nc(NCC(C)C)c(C#N)c2c1CCCC2,-12%,-7%
CN(C(=O)c1ccc(NC(=O)C2CC2)cc1)C1CCCCC1,44%[activator],140%[activator]
CCn1c(SCC(=O)c2ccc[nH]2)nnc1-c1ccncc1,-16%,-7%
CNC(=O)c1ccc2c(c1)NC(=O)CCS2,-1%[1.06 µM],9%
C=CCOC(Cn1ccnc1)c1ccc(Cl)cc1Cl (stereo not drawn),-7%,-16%
COC(=O)C(C(=O)OC)C(c1ccc(Br)cc1)C(C)C(=O)c1ccc(C)cc1C (stereo not drawn),8%,9%
CC(C(=O)N1CCc2ccccc2C1)N(C)CC(=O)Nc1ccc(Cl)c(C(F)(F)F)c1 (stereo not drawn),4%,19%
CCc1nnc(SCC(=O)Nc2c(Cl)cccc2Cl)n1-n1cccc1,27%,0%
O=C(Cc1ccccc1F)NC(c1ccc2c(c1)CCC2)c1cccs1 (stereo not drawn),39%[activator],119%[activator]
CCOC(=O)C1=C(CN2CCN(Cc3ccccc3)CC2)NC(=O)NC1c1ccccc1 (stereo not drawn),6%,-1%
Cc1cc(NCCCNc2ccccc2)nc(-c2cccnc2)n1,1%,-4%
